GLA inh pH 4.5: blocks human alpha-galactosidase A at pH 4.5; P06280; purified enzyme, 4-MU-alpha-Gal fluorescence, pH 4.5; activity change, negative = inhibition, % at 105 µM; 230,000 tested, under 10 active; AID 1467; inconclusive = small, poorly fitted or top-dose-only inhibition, or a rising curve; inactive = flat fitted curve, though single readings scatter; no compound was filed as active;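 also: 0% = full activity with enzyme and -100% = basal without enzyme; dose as in the result columns while the protocol names 77 µM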
Rango release inh: inhibitors of RanGTP-induced Rango-importin beta complex dissociation. O95149+P62826. Biochemical FRET Rango-importin beta, RanGTP-induced dissociation. Potency, µM (highest dose often 46.1 µM), without a hit: at the highest dose activity change, negative = inhibition. 340,000 compounds, 0.071% hits; active means falling FRET ratio curve, often poorly fitted, with flat reads before Ran was added; inconclusive means other falling curves, or compound fluorescence or quenching; inactive means flat or rising ratio curve;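 also: potency is read from the fitted curve at half-maximal effect; % of control where 0% means no effect; nearly all actives have a fitted effect of over 45% in size; -100% = wells without RanGTP and RCC1; the record marks most hits as doubtful in a second field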
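Compounds sat 5 min at room temperature with 0.1 uM Rango biosensor plus 0.25 uM importin beta, then FRET pre-read. RanGTP-RCC1 (0.6 uM Ran, 2mM GTP, 0.2 uM RCC1) added for 45 min, and the CFP/YFP post-read measured blocked complex dissociation.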
Rango-impB inh: prevents formation of the Rango-importin beta complex | Q14974 | Rango CFP/YFP FRET sensor + importin beta, 45 min | Potency, µM (series often up to 92.2 µM), for the others: at the highest dose inhibition of complex formation | 340,000 compounds, 0.031% hits; active = rising FRET ratio curve, often small or poorly fitted; inconclusive = mostly compound fluorescence or quenching in the first reads; inactive = flat curves in all reads;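 also: potency is read from the fitted curve at half-maximal effect; 0% = DMSO wells and 100% = buffer wells lacking importin beta; nearly all actives have a fitted effect of over 15% in size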
Target sequence (Q14974 whole entry, looked up): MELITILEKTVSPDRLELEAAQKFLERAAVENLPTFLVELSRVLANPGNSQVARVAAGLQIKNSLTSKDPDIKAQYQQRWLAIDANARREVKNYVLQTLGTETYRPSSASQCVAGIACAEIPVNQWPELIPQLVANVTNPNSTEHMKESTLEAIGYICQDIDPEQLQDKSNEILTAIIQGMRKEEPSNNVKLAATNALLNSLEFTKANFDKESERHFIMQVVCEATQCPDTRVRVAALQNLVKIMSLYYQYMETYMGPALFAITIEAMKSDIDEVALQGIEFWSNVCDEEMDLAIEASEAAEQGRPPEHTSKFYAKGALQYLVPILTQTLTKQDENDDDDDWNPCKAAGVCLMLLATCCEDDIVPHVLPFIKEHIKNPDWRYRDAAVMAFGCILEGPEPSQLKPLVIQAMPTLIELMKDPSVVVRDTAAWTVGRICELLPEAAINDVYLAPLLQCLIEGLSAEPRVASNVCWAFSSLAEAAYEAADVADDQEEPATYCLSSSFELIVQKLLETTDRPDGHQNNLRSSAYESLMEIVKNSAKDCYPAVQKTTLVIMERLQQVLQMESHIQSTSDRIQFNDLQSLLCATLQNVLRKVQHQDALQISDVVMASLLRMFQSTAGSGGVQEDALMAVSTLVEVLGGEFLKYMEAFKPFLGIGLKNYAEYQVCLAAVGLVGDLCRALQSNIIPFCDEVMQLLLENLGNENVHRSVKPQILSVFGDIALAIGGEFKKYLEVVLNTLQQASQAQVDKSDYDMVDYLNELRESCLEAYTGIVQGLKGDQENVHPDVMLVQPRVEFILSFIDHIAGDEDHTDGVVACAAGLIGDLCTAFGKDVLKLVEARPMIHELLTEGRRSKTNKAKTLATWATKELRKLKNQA
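FRET biosensor (snurportin 1 IBB flanked by EYFP and cerulean), 50 nM, with compound 5 min, then 0.125 microM importin beta in PBS, 1 mM DTT, 0.02% Tween-20, 0.1% BSA. CFP/YFP ratio read after 45 min at room temperature; pre-read flags interference.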
miR-21 reporter: miR-21 reporter, rising signal. Potency, µM (top dose mostly 38.3 µM), without a hit: top-dose reporter change, positive = more light. 340,000 tested, under 10 active. HeLa miR-21 FLuc reporter, luciferase, 48 h; active = well fitted rising curve with a large enough effect; inconclusive = small, poorly fitted or top-dose-only effect; inactive = no such curve, though single readings can be large or run the other way;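 also: % of control where 0% means no effect; miR-21 action dims this reporter so a rising signal means less miR-21 action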
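Using DMEM plus 10% FBS, HeLa miR-21-FLuc cells are incubated with test compounds (final up to about 40uM) for 48 hours; firefly luciferase signal is then imaged following reagent-mediated lysis.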
* marks the source's active call; other numbers are inactive results; u = inconclusive; x = not tested or not shown; & = joins results of further samples. A portion of the library; count on the stated rates, not on these rows.

Under each structure: GLA inh pH 4.5	miR-21 reporter	Rango release inh	Rango-impB inh
1: O=C1C2CCC(C2)C1CN1CCOCC1 (stereo not given)
  x	x	15.5%	-1.2%
2: N/C(COc1ccc(Cl)cc1Cl)=N\NS(=O)(=O)c1ccccc1
  3.7	-16.7%	5.4%	-1.0%
3: CC1=CC(C)=Nc2ccc(C)cc2N1
  3.0&-6.6	-48.0%&-58.3%	2.7%&9.0%	0.3%&-3.1%
4: CCN1CCN(c2ccc(S(=O)(=O)N3CCOCC3)cc2NC(=O)CC(NC(C)=O)c2ccccc2)CC1 (stereo not given)
  x	x	-0.8%	-1.1%
5: CCN(CC)S(=O)(=O)c1cc(NC(=O)CSCc2c(C)noc2C)ccc1C
  x	x	0.0%	-1.5%
6: Cc1cc2ncn(CC(C)C)c2cc1C
  8.5	-8.3%	-6.6%	-2.0%
7: Cc1nn(Cc2ccc(Br)cc2)c(C)c1NC(=O)c1nn(C)cc1Cl
  -9.4	9.0%	1.5%	0.5%
8: O=C(COC(=O)c1ccc[nH]c1=O)NC1CCCC1
  -2.2	-3.2%	0.4%	-0.5%
9: CCc1ccc(OCC(=O)NC(=S)Nc2ccc(F)cc2)c(Br)c1
  0.3	-16.6%	0.9%	1.5%
10: c1ccc(-n2nnc3c(N4CCOCC4)ncnc32)cc1
  -5.2	25.8%	-14.5%	0.6%
11: Nc1ccccc1-c1nc2ccccc2[nH]c1=O
  x	-29.9%	1.7%	0.1%
12: COC(=O)C1=C(C(C)=O)C(c2ccc(C)cc2)n2nnnc2N1 (stereo not given)
  0.4	-7.0%	2.0%	-0.8%
13: CCCCC1CCC(C(=O)OCC(=O)Nc2ccc(S(N)(=O)=O)cc2)CC1 (stereo not given)
  -14.5	-4.9%	4.4%	0.4%
14: OCC1CCCN(C(=S)Nc2ccc(Oc3ccccc3)cc2)C1 (stereo not given)
  5.6	-34.5%	-16.4%	-7.9%
15: CN(C(=O)COc1cc(=O)n(C)c2ccccc12)c1cccc(Cl)c1
  2.8	-10.6%	22.5%	3.7%
16: CCOCCCNC(=O)Cn1cnc2c(cnn2-c2ccc(OC)cc2)c1=O
  x	-6.6%	13.4%	-5.1%
17: Cn1c(=O)[nH]c(=O)c2c1nc(N1CCOCC1)n2CCN1CCOCC1
  -0.7	-7.8%	-14.0%	0.7%
18: CC(NC(=O)CNC(=S)N(Cc1cccs1)C1CCCC1)c1ccccc1 (stereo not given)
  -3.3	14.7%	-1.0%	1.3%
19: CSc1nc(-c2cccs2)c(C#N)c(=O)[nH]1
  -5.3	-6.8%	-1.9%	-1.1%
20: CC1CCN(CCCNc2cc(NCCO)c([N+](=O)[O-])c3nonc23)CC1
  x	-2.7%	22.7%	-0.7%
21: CC(C)(CNC(=O)c1cccc(F)c1)CNC(=O)c1cccc(F)c1
  x	x	u	7.4%
22: O=C(c1ccc(OC2CCN(CCCc3ccccc3)CC2)cc1)N1CCCC1
  x	x	4.7%	-0.6%
23: COC(=O)[C@]1(C)N[C@H](CN(C)C(=O)c2ccc(F)cc2)[C@@H]2C(=O)N(C)C(=O)[C@@H]21
  x	x	8.6%	3.0%
24: NS(=O)(=O)c1ccc(NC(=S)N2CCN(Cc3ccc(Cl)c(Cl)c3)CC2)cc1
  -1.3	22.0%	-6.1%	2.1%
25: CCCCCCCN1CCC(=O)N([C@H](CO)CC(C)C)CC1
  x	-2.1%	-13.0%	-0.6%
26: COc1cc(OC)cc(-c2nnc(SCC(=O)NCc3cccs3)o2)c1
  4.6	-0.1%	1.8%	0.1%
27: COCCn1c(C)cc(C(=O)COc2ccc(N(C)S(=O)(=O)c3ccc(C)cc3)cc2)c1C
  x	x	0.2%	-1.1%
28: Cc1ccc2c(c1)N=C(c1ccccc1)CC(C(Cl)Cl)=N2
  -6.2	2.7%	u	u
29: COC(=O)C1(C)NC(=O)c2ccccc2N1 (stereo not given)
  5.9	-5.1%	0.7%	3.1%
30: O=C(c1n[nH]c(=O)c2ccccc12)N1CCN(Cc2ccc3c(c2)OCO3)CC1
  1.8	5.2%	3.9%	6.3%
31: CCN1CCN(c2ccc(S(=O)(=O)N3CCCCC3)cc2NC(=O)c2ccc(F)cc2)CC1
  -5.1	-13.9%	18.3%	2.2%
32: CCOc1ccc(C=NNc2ccc(S(=O)(=O)Nc3ccccc3C(=O)O)cc2[N+](=O)[O-])cc1
  x	x	12.3%	u
33: COc1ccc(OC(C)C(=O)Nc2cccc([N+](=O)[O-])c2)cc1 (stereo not given)
  -5.4	0.3%	8.3%	0.2%
34: O=C1CCCN1c1cc(Cl)cc(Cl)c1
  -5.0	-0.1%	1.2%	-2.6%
35: O=C(Oc1ccc(C(=S)N2CCOCC2)cc1)c1ccc(F)cc1
  x	-4.5%	-11.2%	-4.1%
36: C/C(CC(=O)Nc1ccc(Cl)cc1Cl)=N\NC(=O)c1cnccn1
  5.3	-22.0%	-2.5%	-3.5%
37: O=C(NCc1ccc(Cl)cc1)c1ccc(N2CCCC2=O)cc1
  -15.6	-31.5%	-7.1%	4.3%
38: Cc1cccc(C)c1N(CC(=O)NCc1ccccc1)C(=O)c1csnn1
  x	5.0%	12.4%	2.5%
39: COc1cc(C)c(Cl)cc1S(=O)(=O)NC1CC(C)(C)NC(C)(C)C1
  2.3	3.0%	x	x
40: Cc1nnc(N(C)C(=O)Cc2ccc3c(c2)OCO3)s1
  -1.7	-8.8%	-12.4%	1.7%
41: Cc1ccc(C2C=C(c3ccccc3)Nc3ncnn32)cc1 (stereo not given)
  x	x	u	u
42: Cn1c(=O)c2c(nc(CN3CCN(C(=O)c4ccco4)CC3)n2Cc2ccc(Cl)cc2)n(C)c1=O
  10.8	-7.7%	8.9%	-2.8%
43: Cc1ccc(S(=O)(=O)Nc2ccc(NC(=O)/C=C/C(=O)O)cc2)cc1
  10.6	-0.6%	8.6%	3.1%
44: O=S(=O)(O)c1cc(O)c2ccc(Nc3ccccc3)cc2c1
  x	x	-12.6%	u
45: COc1cc(CNCc2ccccc2)ccc1OCC(O)c1ccccc1 (stereo not given)
  x	-4.1%	12.1%	-2.5%
46: COCCNC(=O)C(c1cccs1)N(C(=O)Cn1nnc2ccccc21)c1ccccc1 (stereo not given)
  -6.0	-4.9%	1.5%	-3.1%
47: O=C(Nc1ccc(C(F)(F)F)cc1)C1CCN(S(=O)(=O)c2ccc(N3CCCC3=O)cc2)CC1
  x	2.8%	6.6%	-1.9%
48: CN(C)c1nc(N)nc(CSc2ncc(Cl)cc2Cl)n1
  -8.0	-20.9%	3.7%	0.6%
49: NC(=O)C1CCN(c2ncccc2[N+](=O)[O-])CC1
  -0.3	-0.3%	-0.2%	-5.1%
50: O=C(Cn1c(=S)[nH]c2ccccc2c1=O)N1CCc2ccccc2C1
  -22.4	1.4%	2.0%	1.5%
51: CCSc1nsc(NC(=O)Nc2cccc(C(C)=O)c2)n1
  x	27.5%	-9.8%	-0.1%
52: CCN(CC)c1ccc(/C=N/NC(=O)c2cccc(S(=O)(=O)Nc3ccccc3OC)c2)c(O)c1
  -11.5	15.9%	u	u
53: COc1ccc(C(=O)N[C@H](C(=O)OCc2nc3ccsc3c(=O)[nH]2)C(C)C)cc1
  x	x	-6.1%	u
54: O=C(CN1C(=O)NC2(CCCc3ccccc32)C1=O)c1ccc(F)c(F)c1 (stereo not given)
  x	x	-8.3%	4.2%
55: COc1ccc(CC(=O)Nc2ccc(F)c(Cl)c2)cc1S(=O)(=O)N1CCOCC1
  x	x	1.1%	1.9%
56: CC(C)c1ccc(C2CC(=O)c3cnc(N4CCc5ccccc5C4)nc3C2)cc1 (stereo not given)
  2.4	1.0%	-7.2%	0.7%
57: CCN(CC)S(=O)(=O)c1ccc(C(=O)OCC(=O)N2CCOCC2)cc1
  x	0.1%	-1.1%	-5.0%
58: CCN(CC)CCN1C(=O)C(=O)/C(=C(/O)c2ccc(S(=O)(=O)N3CCOCC3)cc2)C1c1ccc(C(C)(C)C)cc1 (stereo not given)
  x	-2.5%	-0.8%	-1.6%
59: c1ccc2nc(-c3nc4ccccc4o3)ccc2c1
  -2.6	25.2%	-13.1%	-1.0%
60: CCOC(=O)[C@H]1[C@H]2COc3ccc(OC)cc3[C@@H]2N2C(=O)c3ccc(C)cc3NC(=O)[C@@]12C
  x	x	-3.4%	-0.2%

Copied from above: compounds 1 to 14
Under each structure: GLA inh pH 4.5	miR-21 reporter	Rango release inh	Rango-impB inh
1: O=C1C2CCC(C2)C1CN1CCOCC1 (stereo not given)
  x	x	15.5%	-1.2%
2: N/C(COc1ccc(Cl)cc1Cl)=N\NS(=O)(=O)c1ccccc1
  3.7	-16.7%	5.4%	-1.0%
3: CC1=CC(C)=Nc2ccc(C)cc2N1
  3.0&-6.6	-48.0%&-58.3%	2.7%&9.0%	0.3%&-3.1%
4: CCN1CCN(c2ccc(S(=O)(=O)N3CCOCC3)cc2NC(=O)CC(NC(C)=O)c2ccccc2)CC1 (stereo not given)
  x	x	-0.8%	-1.1%
5: CCN(CC)S(=O)(=O)c1cc(NC(=O)CSCc2c(C)noc2C)ccc1C
  x	x	0.0%	-1.5%
6: Cc1cc2ncn(CC(C)C)c2cc1C
  8.5	-8.3%	-6.6%	-2.0%
7: Cc1nn(Cc2ccc(Br)cc2)c(C)c1NC(=O)c1nn(C)cc1Cl
  -9.4	9.0%	1.5%	0.5%
8: O=C(COC(=O)c1ccc[nH]c1=O)NC1CCCC1
  -2.2	-3.2%	0.4%	-0.5%
9: CCc1ccc(OCC(=O)NC(=S)Nc2ccc(F)cc2)c(Br)c1
  0.3	-16.6%	0.9%	1.5%
10: c1ccc(-n2nnc3c(N4CCOCC4)ncnc32)cc1
  -5.2	25.8%	-14.5%	0.6%
11: Nc1ccccc1-c1nc2ccccc2[nH]c1=O
  x	-29.9%	1.7%	0.1%
12: COC(=O)C1=C(C(C)=O)C(c2ccc(C)cc2)n2nnnc2N1 (stereo not given)
  0.4	-7.0%	2.0%	-0.8%
13: CCCCC1CCC(C(=O)OCC(=O)Nc2ccc(S(N)(=O)=O)cc2)CC1 (stereo not given)
  -14.5	-4.9%	4.4%	0.4%
14: OCC1CCCN(C(=S)Nc2ccc(Oc3ccccc3)cc2)C1 (stereo not given)
  5.6	-34.5%	-16.4%	-7.9%

Other compounds:
Under each structure: GLA inh pH 4.5	miR-21 reporter	Rango release inh	Rango-impB inh
61: CC1(OC(=O)CCc2ccccc2)C(=O)C=C2C=C3CCCN3C=C2C1=O (stereo not given)
  7.0&-22.1	7.8%	-22.6%	-4.0%
62: Cc1ccc(-c2nc(CS(=O)(=O)CC(=O)NCCCN3CCOCC3)c(C)o2)cc1
  x	1.6%	16.9%	-2.8%
63: CCC1(NC(C)=O)CC2CC1CC2NC(C)=O (stereo not given)
  4.0	-0.7%	-9.0%	-1.5%
64: COc1ccccc1CCNC(=O)CSc1nc(-c2ccco2)cc(C(F)(F)F)n1
  3.5	-0.7%	36.8%	-3.7%
65: Cc1ccsc1C(=O)OCC(=O)NC1CCCC1
  x	x	-8.4%	-0.2%
66: CCCn1nc(C(=O)Nc2cc(S(=O)(=O)Nc3ccc(OC)cc3)ccc2O)c2ccccc2c1=O
  x	x	-3.2%	0.2%
67: Cc1ccc(C(=O)NCCc2cccc(Cl)c2)cc1[N+](=O)[O-]
  -0.3	-48.8%	-22.9%	-1.2%
68: C/C(O)=C(\C#N)P(=O)(c1ccccc1)c1ccccc1
  0.2	6.0%	1.0%	0.2%
69: Cc1ccc(S(=O)(=O)Cc2ccc(C(=O)OCc3ccccc3)cc2)cc1
  -14.9	-1.3%	7.7%	-0.2%
70: OCCn1c(C(F)(F)F)nc2ccccc21
  1.4	-0.4%	-16.1%	-5.7%
71: CN1CCN(C(=O)CSc2nnc(COc3ccccc3)o2)CC1
  x	-1.9%	-13.8%	6.0%
72: Cc1ccc(S(=O)(=O)n2c(N)nc3ccccc32)cc1
  x	-1.5%	-0.7%	-0.1%
